From PubChem
Vaccinia stage = blocks a specific stage of Vaccinia orthopoxvirus infection, primary screen, cell-based, single point; hit rate 0.01% among 89,000; activity change (mCherry), % (no concentration beside the values); Vaccinia-infected cells, mCherry/Venus stage reporter fluorescence; stronger effect = lower value; some inactives read as strong as hits;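 active = mCherry past -33% and 40 or more points under the early reporter, replicates agreeing; inconclusive = past -33% without that gap or agreement; tested in A549 cells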;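 also: scaled between vehicle wells and reference inhibitor wells; 23 nL library stock went into each well; one replicate is shown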
Vaccinia stage Venus = further read-out of Vaccinia stage, marked with its call; activity change (Venus), %; measured here: Venus reporter, other viral stage;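 negative = less Venus signal; first of two replicates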
Active calls of the source: *; ? = inconclusive; . = no result given; & = joins results of further samples. An excerpt, so the mix of outcomes need not match the whole.

SMILES	Vaccinia stage	Vaccinia stage Venus
C[C@@H]1CN([C@H](C)CO)C(=O)c2cc(C#Cc3ccccc3F)cnc2O[C@@H]1CN(C)C(=O)C1CC1	11	6
O=S(=O)(c1ccc(F)cc1)N1C[C@@H]2[C@H](c3ccccc31)[C@@H](CO)N2Cc1ccc2c(c1)OCO2	?	.
Cc1ccc(S(=O)(=O)Nc2ccc3c(c2)C(=O)N([C@@H](C)CO)C[C@@H](C)[C@@H](CN(C)C)OCCCC[C@H](C)O3)cc1	-6	3
C[C@@H]1CCCCO[C@H](CN(C)CC2CC2)[C@H](C)CN([C@H](C)CO)C(=O)c2cc(NC(=O)C3CCCCC3)ccc2O1	-17	-23
CCCNC(=O)Nc1ccc2c(c1)OC[C@@H](C)N(Cc1ccccc1)C[C@@H](C)[C@H](OC)CN(C)C2=O	-5	-11
CO[C@@H]1CN(C)C(=O)c2ccc(NC(=O)NC(C)C)cc2OC[C@H](C)N(C(=O)NC(C)C)C[C@H]1C	17	3
O=C(c1ccncc1)N1CCCCN2[C@H](CO)[C@@H](c3ccc(C#Cc4ccccn4)cc3)[C@@H]2C1	31	17
COc1ccccc1NC(=O)N(C)C[C@@H]1OCc2cn(nn2)CCCC(=O)N([C@@H](C)CO)C[C@H]1C	12&5	22&2
C[C@@H]1CN([C@@H](C)CO)C(=O)c2cccc(NC(=O)Nc3ccc4c(c3)OCO4)c2O[C@@H]1CN(C)S(=O)(=O)c1ccc(Cl)cc1	5	-1
COc1ccc(CNC(=O)C[C@H]2C[C@@H]3c4cc(NS(C)(=O)=O)ccc4O[C@@H]3[C@H](CO)O2)cc1	14	12
COCCCNC(=O)[C@@]1(Cc2ccccc2N=[N+]=[N-])N=C(c2ccc(OCCCO)cc2)O[C@H]1c1ccccc1	-2	1
COc1ccccc1C#Cc1ccc([C@H]2[C@@H](CO)N3CCCCN(C(=O)C4CC4)C[C@H]23)cc1	?	.
C[C@@H]1CCCCO[C@H](CN(C)C(=O)CCCN(C)C)[C@H](C)CN([C@@H](C)CO)C(=O)c2cc(NC(=O)Nc3ccc(F)cc3)ccc2O1	28	5
CCC(=O)N1CC2(CN(Cc3ccc(F)cc3)C2)c2c(n(C)c3cc(OC)ccc23)[C@@H]1CO	-5	-6
O=C(C[C@@H]1CC[C@@H](NC(=O)NC2CCCCC2)[C@H](CO)O1)NCc1ccccc1	11	13
CC(=O)N1[C@H](CN(C)S(=O)(=O)c2ccccc2)[C@H](c2ccccc2)[C@@H]1CO	10	4
C[C@@H]1CCCCO[C@@H](CN(C)C(=O)Nc2ccc3c(c2)OCO3)[C@H](C)CN([C@@H](C)CO)C(=O)c2cc(NS(=O)(=O)c3cccs3)ccc2O1	4	3
O=C(C[C@@H]1CC[C@@H]2[C@H](COC[C@@H](O)CN2C(=O)Nc2ccc(C(F)(F)F)cc2)O1)NCCc1ccncc1	-31	-15
O=C(NCC[C@@H]1CC[C@H](NC(=O)C2CCCCC2)[C@H](CO)O1)c1cnccn1	15	14
CO[C@@H]1CN(C)C(=O)c2cc(NC(=O)C3CC3)ccc2OC[C@@H](C)N(Cc2cc(F)ccc2F)C[C@@H]1C	-26	-15
C[C@@H]1CN([C@@H](C)CO)C(=O)c2cc(NC(=O)CCCN(C)C)ccc2O[C@@H]1CN(C)C(=O)NC1CCCCC1	3	11
C[C@@H]1CN([C@@H](C)CO)C(=O)c2cccc(NC(=O)Nc3ccc4c(c3)OCO4)c2O[C@H]1CN(C)S(=O)(=O)c1cccs1	24	14
CO[C@@H]1CN(C)C(=O)c2cc(NC(=O)c3ccccc3F)ccc2OC[C@@H](C)NC[C@@H]1C	-8	0
O=C(C1CCC1)N1C[C@@H]2N[C@H](C1)C2c1ccc(-c2ccccc2F)cc1 (some centres undefined)	?	-3
O=C(c1ccc(F)cc1)N1CC(=O)N2[C@H](CO)[C@@H](c3ccc(-c4ccccc4)cc3)[C@H]2C1	-34	-26
COc1ccc(NC(=O)Nc2ccc3c(c2)CC(=O)N([C@@H](C)CO)C[C@@H](C)[C@H](CN(C)S(=O)(=O)c2cn(C)cn2)O3)cc1	16	21
COc1ccccc1C#Cc1ccc2c(c1)O[C@H](CN(C)Cc1cncnc1)[C@H](C)CN([C@H](C)CO)S2(=O)=O	-31	-22
COCC#Cc1ccc([C@H]2[C@@H](CO)N3CCCCN(Cc4cncnc4)C[C@H]23)cc1	28	13
O=C(c1cccc(F)c1)N1CC(=O)N2[C@H](C1)[C@@H](c1ccc(-c3cccnc3)cc1)[C@@H]2CO	-2	3
C[C@@H]1CN([C@@H](C)CO)C(=O)CCCn2cc(nn2)CO[C@@H]1CN(C)Cc1ccc2c(c1)OCO2	-8	-6
CCOC(=O)N(C)C[C@H]1OCc2cn(nn2)CCCC(=O)N([C@@H](C)CO)C[C@@H]1C	8	6
CO[C@H]1CN(C)C(=O)c2cc(NC(=O)c3cc(C)on3)ccc2OC[C@H](C)N(C(=O)C2CC2)C[C@H]1C	-3	-4
Cc1noc(C)c1S(=O)(=O)Nc1ccc2c(c1)C(=O)N([C@H](C)CO)C[C@H](C)[C@@H](CN(C)C(=O)NC1CCCCC1)OCCCC[C@@H](C)O2	21	14
CN1C(=O)c2cc(NC(=O)Cc3ccccc3)ccc2OC[C@@H]2O[C@@H](CC(=O)O)CC[C@@H]21	11	11
COC(=O)N(C)C[C@H]1OCc2ccccc2-c2ccccc2C(=O)N([C@@H](C)CO)C[C@H]1C	28	2
Cc1ccc(S(=O)(=O)N(C)C[C@H]2OCCCC[C@H](C)Oc3ccc(NC(=O)NC(C)C)cc3C(=O)N([C@@H](C)CO)C[C@@H]2C)cc1	-19	-15
COc1ccc(NC(=O)N2C[C@@H](O)COC[C@H]3O[C@H](CC(=O)NCc4ccncn4)CC[C@@H]32)cc1	6	11
Cc1noc(C)c1S(=O)(=O)Nc1ccc2c(c1)C(=O)N([C@H](C)CO)C[C@H](C)[C@H](CN(C)Cc1ccccc1)OCCCC[C@H](C)O2	-31	-24
COc1ccc(NC(=O)N(C)C[C@@H]2OCCCC[C@@H](C)Oc3ccc(NC(=O)C4CCCCC4)cc3C(=O)N([C@@H](C)CO)C[C@H]2C)cc1	-24	-18
C[C@@H]1CN([C@H](C)CO)C(=O)Cc2cc(NS(=O)(=O)c3ccc(Cl)cc3)ccc2O[C@H]1CN(C)C(=O)Nc1cccc2ccccc12	15	8

Compounds from the list above that have a Cl atom (two):
SMILES	Vaccinia stage	Vaccinia stage Venus
C[C@@H]1CN([C@@H](C)CO)C(=O)c2cccc(NC(=O)Nc3ccc4c(c3)OCO4)c2O[C@@H]1CN(C)S(=O)(=O)c1ccc(Cl)cc1	5	-1
C[C@@H]1CN([C@H](C)CO)C(=O)Cc2cc(NS(=O)(=O)c3ccc(Cl)cc3)ccc2O[C@H]1CN(C)C(=O)Nc1cccc2ccccc12	15	8

Continued:
SMILES	Vaccinia stage	Vaccinia stage Venus
COc1cccc(S(=O)(=O)N(C)C[C@@H]2Oc3ncc(C#Cc4ccc(C(F)(F)F)cc4)cc3C(=O)N([C@H](C)CO)C[C@@H]2C)c1	?	.
C[C@@H]1CN([C@@H](C)CO)C(=O)c2cc(-c3cccc(C#N)c3)cnc2O[C@@H]1CN(C)C(=O)C1CCC1	20	15
C[C@@H]1CN([C@@H](C)CO)C(=O)c2cc(NS(C)(=O)=O)ccc2O[C@@H]1CN(C)Cc1ccc(-c2ccccc2)cc1	-18	-19
CO[C@H]1CN(C)C(=O)c2ccc(NC(=O)c3ccccc3)cc2OC[C@H](C)N(C(=O)C2CC2)C[C@@H]1C	-3	-1
C[C@H]1CN([C@@H](C)CO)C(=O)c2cc(NC(=O)Nc3cccc4ccccc34)ccc2O[C@H]1CN(C)S(C)(=O)=O	38	19
C[C@@H]1CN([C@H](C)CO)C(=O)c2cc(NS(=O)(=O)c3ccc(F)cc3)ccc2O[C@H]1CN(C)C(=O)Nc1ccccc1	13	11
C[C@@H]1CN([C@@H](C)CO)C(=O)CCCn2cc(nn2)CO[C@@H]1CN(C)CC1CCCCC1	7	4
O=C(N[C@H]1CC[C@@H](CCn2cc(C3CC3)nn2)O[C@H]1CO)c1cccnc1	9	0
C[C@@H](O)C#Cc1ccc([C@H]2[C@H]3CN(C(=O)c4ccncc4)CCCCN3[C@H]2CO)cc1	24	3
O=C(Nc1ccccc1)[C@H]1[C@H](CO)[C@H]2Cn3c(cccc3=O)[C@H]2N1C(=O)C1CC1	9	6
C[C@@H]1CCCCO[C@H](CN(C)C(=O)C2CCCCC2)[C@@H](C)CN([C@H](C)CO)C(=O)c2cc(NC(=O)c3ccncc3)ccc2O1	28	16
O=C(C[C@@H]1C[C@@H]2c3cc(NC(=O)C4CCC4)ccc3O[C@@H]2[C@@H](CO)O1)NCc1ccc(-c2ccccc2)cc1	-6	-9
O=C(C[C@H]1C[C@@H]2c3cc(NC(=O)c4ccc5c(c4)OCO5)ccc3O[C@@H]2[C@@H](CO)O1)NCc1cc(F)ccc1F	3	10
N#Cc1ccc(-c2ccc3c(c2)[C@H]2[C@H](CCN2C(=O)c2ccccc2F)[C@@H](CO)N3)cc1	?	.
C[C@H]1CCCCO[C@H](CN(C)C(=O)Nc2cccc3ccccc23)[C@@H](C)CN([C@@H](C)CO)C(=O)c2cc(NC(=O)C3CCCCC3)ccc2O1	-11	-5
C[C@H](CO)N1C[C@H](C)[C@H](CN(C)C(=O)Nc2ccc3c(c2)OCO3)Oc2cc(C#Cc3ccncc3)ccc2S1(=O)=O	?	.
O=C1CN(S(=O)(=O)Cc2ccccc2)C[C@H]2[C@H](c3ccc(C#CCC4CCCC4)cc3)[C@@H](CO)N12	?	.
O=C(C[C@H]1C[C@@H]2c3cc(NC(=O)Nc4ccc(C(F)(F)F)cc4)ccc3O[C@@H]2[C@@H](CO)O1)NCCc1ccccc1	?	.
O=C(C1CCOCC1)N1C[C@H]2[C@@H](c3ccccc31)[C@@H](CO)N2C(=O)c1ccccc1	9	11
O=C(C[C@H]1C=C[C@@H](NC(=O)Nc2ccccc2F)[C@@H](CO)O1)NCc1ccc(-c2ccccc2)cc1	-27	-18
O=S(=O)(Cc1ccccc1)N1CCCCN2[C@H](CO)[C@H](c3ccc(C#Cc4ccccc4)cc3)[C@@H]2C1	-25	-13
C[C@H](CO)N1C[C@H](C)[C@@H](CN(C)Cc2ccncc2)OCCCC[C@H](C)Oc2ccc(NC(=O)Cc3ccccc3)cc2C1=O	-2	5
Cc1cccc(-c2ccc([C@H]3[C@@H](CO)N4CCCCN(Cc5cccnc5)C[C@H]34)cc2)c1	?	.
CC(C)NC(=O)N1CC2(C1)[C@H](c1ccccc1)[C@H](CO)N2C(=O)c1ccccn1	14	11
C[C@H](CO)N1C[C@H](C)[C@H](CN(C)Cc2ccc(Oc3ccccc3)cc2)Oc2ncc(-c3cncnc3)cc2C1=O	-11	-8
C[C@H]1CN([C@@H](C)CO)C(=O)Cc2cc(NC(=O)Nc3cccc4ccccc34)ccc2O[C@@H]1CN(C)Cc1ccc(Oc2ccccc2)cc1	-10	-9
CNC[C@@H]1OCCCC[C@H](C)Oc2ccc(NC(=O)c3ccccc3)cc2C(=O)N([C@H](C)CO)C[C@H]1C	15	13
Cc1noc(C)c1NC(=O)N(C)C[C@H]1Oc2ncc(C#CCC(C)C)cc2C(=O)N([C@H](C)CO)C[C@@H]1C	14	2
CO[C@@H]1CN(C)C(=O)c2cc(NC(C)=O)ccc2OC[C@@H](C)N(C(=O)CC2CC2)C[C@H]1C	-2	6
COCC#Cc1cnc2c(c1)C(=O)N([C@@H](C)CO)C[C@@H](C)[C@@H](CN(C)C(=O)Cc1cccnc1)O2	15	6
C[C@@H]1CCCCO[C@H](CN(C)Cc2ccc(C(F)(F)F)cc2)[C@H](C)CN([C@H](C)CO)C(=O)c2cc(NS(=O)(=O)c3cn(C)cn3)ccc2O1	-14	-7
CO[C@H]1CN(C)C(=O)c2ccc(NC(=O)C3CC3)cc2OC[C@@H](C)N(C(=O)Cc2ccccn2)C[C@@H]1C	0	6
O=C(C1=C[C@H](C2CC2)C[C@H](OCCCCO)O1)N1CCCC1	9	0
CC(C)NC(=O)N(C)C[C@H]1Oc2ccc(NC(=O)Nc3ccc4c(c3)OCO4)cc2C(=O)N([C@@H](C)CO)C[C@@H]1C	28	17
C[C@H](CO)N1C[C@H](C)[C@@H](CN(C)Cc2ccccc2)Oc2ncc(Br)cc2C1=O	17	2

Structural class, the entries above with an aryl methoxy group
SMILES	Vaccinia stage	Vaccinia stage Venus
COc1ccccc1NC(=O)N(C)C[C@@H]1OCc2cn(nn2)CCCC(=O)N([C@@H](C)CO)C[C@H]1C	12&5	22&2
COc1ccc(CNC(=O)C[C@H]2C[C@@H]3c4cc(NS(C)(=O)=O)ccc4O[C@@H]3[C@H](CO)O2)cc1	14	12
COc1ccccc1C#Cc1ccc([C@H]2[C@@H](CO)N3CCCCN(C(=O)C4CC4)C[C@H]23)cc1	?	.
CCC(=O)N1CC2(CN(Cc3ccc(F)cc3)C2)c2c(n(C)c3cc(OC)ccc23)[C@@H]1CO	-5	-6
COc1ccc(NC(=O)Nc2ccc3c(c2)CC(=O)N([C@@H](C)CO)C[C@@H](C)[C@H](CN(C)S(=O)(=O)c2cn(C)cn2)O3)cc1	16	21
COc1ccccc1C#Cc1ccc2c(c1)O[C@H](CN(C)Cc1cncnc1)[C@H](C)CN([C@H](C)CO)S2(=O)=O	-31	-22
COc1ccc(NC(=O)N2C[C@@H](O)COC[C@H]3O[C@H](CC(=O)NCc4ccncn4)CC[C@@H]32)cc1	6	11
COc1ccc(NC(=O)N(C)C[C@@H]2OCCCC[C@@H](C)Oc3ccc(NC(=O)C4CCCCC4)cc3C(=O)N([C@@H](C)CO)C[C@H]2C)cc1	-24	-18
COc1cccc(S(=O)(=O)N(C)C[C@@H]2Oc3ncc(C#Cc4ccc(C(F)(F)F)cc4)cc3C(=O)N([C@H](C)CO)C[C@@H]2C)c1	?	.
